Source: PubChem (National Center for Advancing Translational Sciences (NCATS))
nsP2pro primary: CHIKV nsP2 protease inhibition, primary qHTS | FRET peptide cleavage, nsP2pro, fluorescence 1 h | Potency, µM (series often up to 24.9 µM), inactives show at the highest dose activity change, negative = inhibition, most hits filed as inhibitors | 1.1% of 31,000 active | AID 1964107; active means well fitted inhibition curve with a large enough effect; inconclusive means small, poorly fitted or top-dose-only effect; inactive means no such curve, though single readings can be large or run the other way; also: nearly all actives have a fitted effect of over 60% in size; a reference inhibitor and vehicle were the controls
Target sequence (Q8JUX6 whole entry, looked up): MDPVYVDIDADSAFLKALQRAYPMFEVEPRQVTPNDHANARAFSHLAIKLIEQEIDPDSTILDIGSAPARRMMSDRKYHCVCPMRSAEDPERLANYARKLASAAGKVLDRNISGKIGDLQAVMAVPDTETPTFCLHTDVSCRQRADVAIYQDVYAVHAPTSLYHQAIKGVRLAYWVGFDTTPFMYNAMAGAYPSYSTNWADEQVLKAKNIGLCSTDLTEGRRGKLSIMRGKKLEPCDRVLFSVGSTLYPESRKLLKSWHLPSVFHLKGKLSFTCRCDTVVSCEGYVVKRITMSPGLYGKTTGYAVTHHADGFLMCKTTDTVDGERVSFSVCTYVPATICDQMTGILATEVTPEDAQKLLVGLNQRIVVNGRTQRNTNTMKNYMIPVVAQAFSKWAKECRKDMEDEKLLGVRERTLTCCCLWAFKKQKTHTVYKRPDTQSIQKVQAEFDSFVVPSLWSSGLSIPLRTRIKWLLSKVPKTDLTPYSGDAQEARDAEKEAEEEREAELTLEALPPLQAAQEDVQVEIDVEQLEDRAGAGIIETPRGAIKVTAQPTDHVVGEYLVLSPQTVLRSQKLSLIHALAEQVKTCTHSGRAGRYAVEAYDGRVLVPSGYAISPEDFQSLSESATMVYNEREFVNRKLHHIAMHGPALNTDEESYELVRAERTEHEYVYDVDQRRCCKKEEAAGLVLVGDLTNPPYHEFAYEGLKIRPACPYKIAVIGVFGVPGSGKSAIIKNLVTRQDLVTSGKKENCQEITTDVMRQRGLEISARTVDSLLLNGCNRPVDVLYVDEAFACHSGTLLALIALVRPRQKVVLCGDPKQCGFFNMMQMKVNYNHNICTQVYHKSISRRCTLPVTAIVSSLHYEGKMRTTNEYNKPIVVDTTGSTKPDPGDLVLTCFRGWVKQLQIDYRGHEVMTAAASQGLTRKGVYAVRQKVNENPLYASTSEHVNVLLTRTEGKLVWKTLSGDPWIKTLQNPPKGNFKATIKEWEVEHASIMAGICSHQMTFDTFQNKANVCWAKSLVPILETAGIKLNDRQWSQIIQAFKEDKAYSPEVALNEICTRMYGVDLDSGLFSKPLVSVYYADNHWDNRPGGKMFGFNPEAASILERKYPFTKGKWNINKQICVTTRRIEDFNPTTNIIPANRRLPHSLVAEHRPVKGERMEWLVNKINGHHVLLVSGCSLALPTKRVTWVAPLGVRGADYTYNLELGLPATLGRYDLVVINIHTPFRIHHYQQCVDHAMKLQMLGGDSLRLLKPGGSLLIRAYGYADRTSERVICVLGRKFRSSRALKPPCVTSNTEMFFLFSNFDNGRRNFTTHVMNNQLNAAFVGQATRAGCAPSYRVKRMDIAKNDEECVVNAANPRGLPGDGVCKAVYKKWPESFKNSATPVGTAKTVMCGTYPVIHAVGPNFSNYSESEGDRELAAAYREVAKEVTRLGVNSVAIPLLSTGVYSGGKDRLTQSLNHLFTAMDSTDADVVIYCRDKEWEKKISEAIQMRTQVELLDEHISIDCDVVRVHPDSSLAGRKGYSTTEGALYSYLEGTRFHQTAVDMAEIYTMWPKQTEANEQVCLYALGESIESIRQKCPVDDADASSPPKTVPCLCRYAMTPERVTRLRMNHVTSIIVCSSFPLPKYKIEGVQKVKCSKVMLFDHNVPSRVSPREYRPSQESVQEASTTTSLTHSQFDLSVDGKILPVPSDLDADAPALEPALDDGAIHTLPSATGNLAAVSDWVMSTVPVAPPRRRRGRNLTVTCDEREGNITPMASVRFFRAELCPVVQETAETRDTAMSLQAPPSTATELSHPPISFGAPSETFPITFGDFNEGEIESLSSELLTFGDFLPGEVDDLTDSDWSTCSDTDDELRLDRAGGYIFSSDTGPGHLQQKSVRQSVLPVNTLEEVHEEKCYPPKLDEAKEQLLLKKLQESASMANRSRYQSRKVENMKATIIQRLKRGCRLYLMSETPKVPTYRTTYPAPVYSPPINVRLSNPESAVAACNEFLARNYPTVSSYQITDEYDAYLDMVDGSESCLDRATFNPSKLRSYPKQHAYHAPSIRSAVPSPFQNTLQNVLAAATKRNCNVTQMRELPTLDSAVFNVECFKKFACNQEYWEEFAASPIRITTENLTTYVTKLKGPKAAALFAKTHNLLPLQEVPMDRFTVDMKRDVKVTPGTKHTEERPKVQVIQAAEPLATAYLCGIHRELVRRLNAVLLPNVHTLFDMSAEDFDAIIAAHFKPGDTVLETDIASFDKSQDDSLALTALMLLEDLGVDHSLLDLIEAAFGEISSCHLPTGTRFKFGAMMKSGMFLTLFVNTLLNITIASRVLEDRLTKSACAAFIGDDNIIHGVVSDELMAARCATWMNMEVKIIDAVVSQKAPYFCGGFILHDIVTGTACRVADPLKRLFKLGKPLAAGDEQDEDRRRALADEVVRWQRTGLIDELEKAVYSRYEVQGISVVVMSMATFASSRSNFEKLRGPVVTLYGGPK
* marks the source's active call; other numbers are inactive results; i = inactive; ? = inconclusive; & = joins results of further samples; [ ] = another dose, or the depositor's remark. % is scaled to controls: 0 for no effect and ±100 for the full control effect; potency is read from the fitted curve at half-maximal effect. Not all compounds are listed (hit frequency here may not be typical).

SMILES	nsP2pro primary
Nc1c(C(=O)Nc2ccc(C(=O)O)cc2)sc2nc3c(cc12)CCCC3	?
NC(=NCCCCCCN=C(N)/N=C(\N)Nc1ccc(Cl)cc1)/N=C(\N)Nc1ccc(Cl)cc1	54.8%&1.2%&22.8%[activator]
Cc1cccc(N2CCN(C(=O)c3sc4nc5n(c(=O)c4c3C)CCC5)CC2C)c1 (stereo not drawn)	-8.9%
CCN(CC)C(=O)[C@@H]1CCC[C@@H](NC(C)=O)CN(C)C(=O)C1	-7.5%[39.2 µM]
C[C@@H]1CN(C(=O)c2cnc3sccn3c2=O)C[C@@]1(O)C1CCC1	i
CC(C)c1noc(-c2cn(C3CCCN(C(=O)c4ccc[nH]4)C3)nn2)n1 (stereo not drawn)	2.7%
CC1C=CC2CCCCC2C1CCC1CC(O)CC(=O)O1 (stereo not drawn)	21.6%
CCOC(=O)c1c(Nc2cccc(C(=O)OC)c2)nnc(-c2ccccc2)c1-c1ccccc1	-12.5%
Cc1c(N)nc([C@H](CC(N)=O)NC[C@@H](N)C(N)=O)nc1C(=O)N[C@H](C(=O)N[C@@H](C)[C@H](O)[C@@H](C)C(=O)N[C@@H](C(=O)NCCc1nc(-c2nc(C(=O)NCCC[S+](C)C)cs2)cs1)[C@@H](C)O)C(O[C@H]1O[C@H](CO)[C@H](O)[C@@H](O)[C@H]1O[C@H]1O[C@H](CO)[C@@H](O)[C@H](OC(N)=O)[C@@H]1O)c1cnc[nH]1 (stereo partly drawn)	97.5%[activator]
COc1ccccc1CNC(=O)CSCc1nc(-c2ccc(OC)c(OC)c2)oc1C	-27.0%
CCOC(=O)c1[nH]c2c(c1Cc1ccccc1)C(=O)CC(c1ccc(C(C)(C)C)cc1)C2 (stereo not drawn)	-7.6%
Cc1ccc(S(=O)(=O)c2nnn(-c3ccc(F)c(Cl)c3)c2N)cc1	-15.2%
Cc1ccccc1NC(=O)c1cc2n(n1)CC(c1ccc(Cl)cc1)OC2 (stereo not drawn)	i
O[C@@H]1CC(CNCc2ccc(F)cc2)(COc2cccnc2)C[C@@H]1O (stereo partly drawn)	-12.3%[39.2 µM]
Cc1cc2c(s1)c1cnn(Cc3cccc(Br)c3)c(=O)c1n2C	2.6%
COCOC1CCC(C(=O)Nc2ccc([S+](=O)([O-])Nc3nccs3)cc2)CC1 (stereo not drawn)	i
CC(=O)Nc1sc2c(c1-c1ccc(C#N)cc1)CCNC2	-8.9%
CCOc1ccccc1NC(=O)Nc1cccc(-c2ccc(N3CCCC3)nn2)c1	-9.6%
C=CC1C(O[C@@H]2O[C@H](CO)[C@@H](O)[C@H](O)[C@H]2O)OC=C(C(=O)OC)C1CC(=O)O (stereo partly drawn)	?
CCOC(=O)c1c(-c2ccc(OC)cc2)csc1NC(=O)C1CCCO1 (stereo not drawn)	?
Cn1c(=O)c2nc(SCC(=O)Nc3ccc(Cl)c(Cl)c3)n(C)c2n(C)c1=O	-10.6%
O=[N+]([O-])c1ccc(S(=O)(=O)NCc2nc3cccnc3n2Cc2ccccc2Cl)cc1	-11.4%
CC/C=C\[C@H](O)[C@H](O)C1=C(C)C(=O)[C@]2(O1)C(=O)N[C@@](OC)(C(=O)c1ccccc1)[C@@H]2O	-3.4%[10 µM]
CCc1ccccc1NC(=O)c1cnc2sc(N3CCCC3)nn2c1=O	-15.9%
COc1c(CCC(=O)O)cccc1O[C@@H]1O[C@H](CO)[C@@H](O)[C@H](O)[C@H]1O	117.8%[activator]
New compounds follow:
SMILES	nsP2pro primary
CC(C)(C)OC(=O)N1CCN(c2cnc(NCc3ccc(-c4ccc(C#N)cc4)o3)nc2)CC1	-16.3%
COc1ccc([C@@H]2CN(c3nnnn3-c3ccccc3)C[C@H]2NC(C)=O)cc1	1.1%
N#Cc1c(-c2ccc(Br)cc2)no[n+]1[O-]	i
CCCSc1ncc(Cl)c(C(=O)Nc2nc3ccc(OCC)cc3s2)n1	-29.1%
CC(=O)Nc1sc2c(c1-c1nc3ccccc3s1)CN(C1COC1)C2	i
COc1cc(NC(=O)C2CCCN(S(=O)(=O)c3cn(C)cn3)C2)cc(OC)c1 (stereo not drawn)	-12.4%
Cn1c2cc(Br)sc2c2cnn(Cc3c(F)cccc3F)c(=O)c21	-14.7%
CC(C)(C)n1nc(Cc2cccc3ccccc23)c2c(N)ncnc21	0.7%
NC(=O)[C@H](CC1CCCCC1)NC(=O)[C@@H]1CN(C(=O)Nc2ccccc2)CCN1C(=O)C1CCCCC1	i
CCn1c2c(c(=O)n3ncc(C(=O)Nc4ccc(F)cc4Cl)c13)CN(Cc1ccc(OC)cc1)CC2	-31.9%
NC(=O)c1cccc(-c2noc(-c3ccccc3C(F)(F)F)n2)c1	-4.0%
CCc1ccccc1C(=O)N1CCc2cc(-c3nc(NC(=O)Cc4ccc5c(c4)OCO5)sc3C)ccc21	i
CS(=O)(=O)n1cc2c(n1)CN([C@H]1CO[C@H](c3cc(F)ccc3F)[C@@H](N)C1)C2	9.0%&-5.6%
COc1ccc(CN2CCn3c(nnc3C3CCCNC3)C2)cc1 (stereo not drawn)	-3.5%[39.2 µM]
CN(Cc1cccs1)Cc1cccn1C	?
O=c1c2ccccc2nc2sc(Nc3ccc(F)cc3)nn12	-1.8%
CCC(C)N1Cc2cc(NC(=O)Cc3cccc(OC)c3)ccc2OCC1=O (stereo not drawn)	-0.3%
CC(=O)N1CCC2(CC1)CC(c1cccc(C(F)(F)F)c1)=NO2	-2.0%[39.2 µM]
COc1cc(OC)cc(C(=O)Nc2ccc3nc(Nc4cccc(C(F)(F)F)c4)cc(C)c3c2)c1	55.2%[activator]
Cn1c2ccc(F)cc2c2nnc(SCCN3CCCCC3)nc21	-14.2%
CCOc1ccc(CCNC(=O)CSc2n[nH]c(-c3ccccc3)n2)cc1OCC	-5.8%
c1cncc(CNc2ncnc3ccc(-c4cccnc4)cc23)c1	4.9%
CC[C@@](C)(Nc1ccnc(-c2c[nH]c3ncccc23)n1)C(=O)NCC(F)(F)F	0.2%
O=C(Nc1ccc2nc(SCCOc3ccccc3)sc2c1)c1cccs1	-18.7%
Cc1cccc(N2CCN(C(=O)CCNS(=O)(=O)c3ccc4c(c3)CCN4C(=O)C3CC3)CC2C)c1 (stereo not drawn)	-14.8%

Look-ups from the results shown:
In nsP2pro primary, CC(C)(C)n1nc(Cc2cccc3ccccc23)c2c(N)ncnc21 is entered as 0.7%
In nsP2pro primary, COc1cc(NC(=O)C2CCCN(S(=O)(=O)c3cn(C)cn3)C2)cc(OC)c1 (stereo not drawn) is entered as -12.4%

(further entries)
SMILES	nsP2pro primary
CCOCC(O)Cn1cnc(-c2ccccc2)c1-c1cccc(OC)c1F (stereo not drawn)	-4.6%
C[C@@H]1CC[C@]2(C(=O)O)CC[C@]3(C)C(=CCC4[C@@]5(C)CC[C@H](O)[C@](C)(C(=O)O)C5CC[C@]43C)C2[C@]1(C)O (stereo partly drawn)	-8.6%[10 µM]
Cc1cnc(-c2ccccc2C(C)C)nc1NCC1CN(c2cccnc2)C1	-1.9%
CC1CCN(S(=O)(=O)c2ccc3ncn(CC(=O)Nc4ccccc4C(F)(F)F)c(=O)c3c2)CC1	-8.2%
Cc1ccc(CN2CCCn3nc(C(=O)NCC(C)c4ccccc4)cc3C2=O)cc1 (stereo not drawn)	-18.0%
CC1(C)S[C@H]2[C@H](NC(=O)[C@@H](N)c3ccc(O)cc3)C(=O)N2[C@H]1C(=O)O	81.2%&9.8%[activator]
COc1ccc(C2c3c(-c4ccccc4O)n[nH]c3C(=O)N2Cc2ccco2)cc1 (stereo not drawn)	8.4%
COc1ccc(NC(=O)CSc2nc(-c3ccco3)cc(C(F)(F)F)n2)cc1OC	-15.8%
N#CN1CCC(NS(=O)(=O)c2ccc(F)cc2)C1 (stereo not drawn)	-4.8%
NC(=O)c1cccc(N)c1	-20.5%&-3.8%
CCOc1ccc(NC(=O)NCc2cccn2Cc2ccccc2)cc1	-10.9%
Cc1ccc(CNC(=O)CCCn2c(=O)[nH]c3ccc(Br)cc3c2=O)cc1	-12.1%
COc1cccc(Nc2cc(C(=O)NCc3cccnc3)c3c(c2)ncn3C)c1	i
CCc1cc2c(cc3c(=O)n(CC(=O)NCc4cc(Br)ccc4OC)ncn32)s1	-16.7%
COc1cc2c3cc1Oc1c(OC)c(OC)cc4c1[C@@H](Cc1ccc(O)c(c1)Oc1ccc(cc1)C[C@@H]3N(C)CC2)N(C)CC4	-14.7%
CS(=O)(=O)c1ccc(C(=O)Nc2ccc(Cl)c(-c3ccccn3)c2)c(Cl)c1	-1.5%&-1.4%
CCC1=CC2CN3CCc4c([nH]c5ccccc45)[C@@](C(=O)OC)(C2)[C@@H]13	?
CCOCCCNC(=O)c1ccc(Cn2c(=O)c3cccn3c3cccnc32)cc1	-21.2%
OCCOCCn1cnc(-c2ccccc2)c1COCc1ccccc1	1.5%
N[C@@H](Cn1ccc(=O)c(O)c1)C(=O)O	-7.5%[2.68 µM]
CC(C)CNc1nc(NC(C)(C)C)nc(Oc2ccc(=O)n(-c3ccccc3)n2)n1	-22.7%
O=C(Cn1cnnn1)N[C@@H]1C(=O)N2C(C(=O)O)=C(CSc3nncs3)CS[C@H]12	-34.3%
COc1ccc(-c2ccc3nc(-c4cc(C)cc(C)c4)oc3c2)c(OC)c1OC	-7.6%
O[C@@H]1C[C@@H](c2nc(-c3ccc4c(c3)OCO4)no2)N(Cc2ccc(-c3ccccn3)cc2)C1	2.6%
CC(=O)O[C@@H]1CC[C@@]2(C)C(CC[C@]3(C)C2[C@H](O)C=C2[C@H]4[C@@H](C)[C@H](C)CC[C@]4(C)CC[C@]23C)[C@@]1(C)C(=O)O (stereo partly drawn)	-15.3%[10 µM]

Part of the list above in a different format.
Compound | nsP2pro primary
NC(=O)c1cccc(N)c1 | -20.5%&-3.8%
CCOc1ccc(NC(=O)NCc2cccn2Cc2ccccc2)cc1 | -10.9%
Cc1ccc(CNC(=O)CCCn2c(=O)[nH]c3ccc(Br)cc3c2=O)cc1 | -12.1%
COc1cccc(Nc2cc(C(=O)NCc3cccnc3)c3c(c2)ncn3C)c1 | i
CCc1cc2c(cc3c(=O)n(CC(=O)NCc4cc(Br)ccc4OC)ncn32)s1 | -16.7%

3 structures from above, ordered by length of the SMILES, falling.
SMILES	nsP2pro primary
O[C@@H]1C[C@@H](c2nc(-c3ccc4c(c3)OCO4)no2)N(Cc2ccc(-c3ccccn3)cc2)C1	2.6%
COc1ccc(C2c3c(-c4ccccc4O)n[nH]c3C(=O)N2Cc2ccco2)cc1 (stereo not drawn)	8.4%
N#CN1CCC(NS(=O)(=O)c2ccc(F)cc2)C1 (stereo not drawn)	-4.8%

(continued)
SMILES	nsP2pro primary
Cc1ccc(CNC(=O)N2CCc3nnc(C4CC4)n3CC2)cc1	?
O=C(Cn1c(=O)n(Cc2ccccc2)c(=O)c2sc3ccccc3c21)NCc1ccccc1Cl	-19.3%
O=C(CCO[C@@H]1O[C@H](CO)[C@@H](O)[C@H](O)[C@H]1O)c1ccc(O)cc1	-18.1%
COc1cccc(NC(=O)c2sc(-n3nc(C)c(Cc4ccccc4Cl)c3C)nc2C)c1	-20.1%
CN1C(=O)CCC2(CNC(=O)CCc3c[nH]c4ccccc34)CCC=C12 (stereo not drawn)	-16.6%
O=c1[nH]ccc2nc(-c3ccc(CN4CCC(c5nc(-c6ccccn6)n[nH]5)CC4)cc3)c(-c3ccccc3)cc12	143.0%[activator]
CCOc1ccc(CCNC(=O)c2cc3sccc3n2Cc2ccc(Cl)c(F)c2)cc1OCC	i
CC(=O)O[C@H]1CC(C)(C)CC2[C@]13CO[C@@]21CCC2[C@@]4(C)CC[C@H](O[C@@H]5OC[C@H](O[C@@H]6O[C@H](CO)[C@@H](O)[C@H](O)[C@H]6O[C@@H]6OC[C@@H](O)[C@H](O)[C@H]6O)[C@H](O)[C@H]5O[C@@H]5O[C@H](CO)[C@@H](O)[C@H](O)[C@H]5O)[C@@](C)(CO)C4CC[C@@]2(C)[C@]1(C)C[C@H]3O (stereo partly drawn)	44.1%[5.1 µM]
Cc1cc(N2CCC(C(=O)Nc3ccc(F)cc3C)CC2)n2nc(C)c(-c3ccc(Cl)cc3)c2n1	-11.7%
COCCCc1cc(F)c(S(=O)(=O)N2CCN(S(=O)(=O)c3ccc4c(c3)OCCO4)CC2)cc1F	1.5%
O=C(NCCCc1ccccc1F)[C@@]12CNC[C@@H]1CN(Cc1ccccc1)C2	3.4%
CC(=O)Nc1sc2c(c1Br)CCNC2	i
COc1cc(/C=C/C(=O)O[C@H]2C[C@@H]3C(C(=O)O)=CO[C@@H](O[C@@H]4O[C@H](CO)[C@@H](O)[C@H](O)[C@H]4O)[C@@H]3[C@H]2C)ccc1O	-3.5%[10 µM]
N#Cc1c(C(=O)c2cccs2)no[n+]1[O-]	?
Clc1cc(NCc2ccccc2Cl)n2nccc2n1	-5.5%[39.2 µM]
CC1CCCC(O)CCC/C=C/c2cc(OS(=O)(=O)O)cc(O)c2C(=O)O1 (stereo not drawn)	11.4%
COC[C@@H]1CN(Cc2cn[nH]c2-c2ccccc2)C[C@H]1c1nc(C)no1	i
CC(C)NC(=O)c1ccnc(-c2cc(NC3CCCC3)nc3[nH]ccc23)c1	?
Cc1ccc(CN(Cc2ccco2)C(=O)c2ccc(Cl)cc2Cl)cc1	31.7%[activator]
C=C1[C@H](OC(C)=O)[C@H]2[C@@H](OC(C)=O)[C@](C)(OC(C)=O)C[C@]2(OC(C)=O)C(=O)[C@H](C)/C=C/C(C)(C)C(=O)[C@H](OC(=O)C(C)C)[C@H]1OC(C)=O	?
CCC(Sc1ncc(S(=O)(=O)c2ccc(Cl)cc2)c(=O)[nH]1)C(=O)Nc1ccc(OC)cc1 (stereo not drawn)	4.4%
CC(=O)[C@]1(O)Cc2c(O)c3c(c(O)c2[C@@H](O[C@H]2C[C@H](N)[C@H](O)[C@H](C)O2)C1)C(=O)c1ccccc1C3=O	211.8%[activator]
COC1CCOC2(CCN(C(=O)CCc3nc4ccccc4s3)CC2)C1 (stereo not drawn)	i
